# eIF4H FP inh – inhibitors of RNA binding by human eIF4H. eIF4H fluorescence polarization binding assay. inhibition, % at 35 µM. 290,000 compounds, 0.94% hits;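 active = 50% or more with normal probe brightness, or confirmed in later tests; about a fifth of its hits are not listed in these tables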;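 note: calls also rest on retests at 20 µM and on dose response follow-up; 0% = protein and probe with vehicle and 100% = probe without protein; strong numbers were not always called active; many hits fall short of the cut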
# PABP FP inh – PABP-poly(A) binding inhibition | P11940 | 290,000 compounds, 1% hits | AID 2014 | inhibition, % at 35 µM | PABP-poly(A) RNA binding, fluorescence polarization;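 active = 50% or more with normal probe brightness, or confirmed in later tests; about a fifth of its hits are not listed in these tables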;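 note: calls also rest on retests at 20 µM and on dose response follow-up; controls were probe without protein and protein plus probe with vehicle; some compounds called inactive have numbers as strong as hits; many hits fall short of the cut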
# Target sequence (P11940 whole entry, looked up): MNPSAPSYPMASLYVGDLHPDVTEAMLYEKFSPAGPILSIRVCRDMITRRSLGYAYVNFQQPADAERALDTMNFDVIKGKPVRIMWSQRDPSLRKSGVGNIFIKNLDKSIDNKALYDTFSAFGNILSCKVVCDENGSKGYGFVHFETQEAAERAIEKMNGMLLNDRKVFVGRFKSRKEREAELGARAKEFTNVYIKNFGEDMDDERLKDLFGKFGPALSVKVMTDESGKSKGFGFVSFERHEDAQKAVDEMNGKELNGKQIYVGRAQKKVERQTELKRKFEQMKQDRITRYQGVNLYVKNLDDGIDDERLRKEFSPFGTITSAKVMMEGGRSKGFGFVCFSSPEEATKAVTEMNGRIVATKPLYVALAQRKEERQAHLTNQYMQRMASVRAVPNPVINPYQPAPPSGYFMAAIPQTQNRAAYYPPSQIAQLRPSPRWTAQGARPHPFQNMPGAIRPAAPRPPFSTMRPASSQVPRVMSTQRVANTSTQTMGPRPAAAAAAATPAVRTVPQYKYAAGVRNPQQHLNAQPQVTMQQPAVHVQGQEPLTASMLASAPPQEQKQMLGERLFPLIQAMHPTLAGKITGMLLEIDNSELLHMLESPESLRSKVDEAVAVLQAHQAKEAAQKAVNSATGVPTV
# UUG fidelity – alters start codon recognition fidelity in yeast; S. cerevisiae UUG-firefly luciferase reporter, luminescence/redox ratio; activity score, % at 18.7 µM; 350,000 compounds, 0.13% hits; AID 602363;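 active = replicate mean at a twofold rise or more, about +100% in these data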;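 note: firefly luciferase made from a UUG start codon reports start codon fidelity; reporter light over untreated wells divided by growth signal over untreated wells; some hits fall short of that in this replicate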
# MT1-MMP act inh – blocks activation of human MT1-MMP. P50281. HT1080 RFP-PRO-GFP cells, GFP/RFP ratio fluorescence, overnight; percent of plate control window, DMSO zero. GFP/RFP ratio change, % at 20 µM. 360,000 compounds, 0.061% hits;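 active = GFP/RFP ratio change of at least 30% with cell ATP level not reduced by more than half and red fluorescence within 50% of control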; note: strong numbers were not always called active
#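 Assay system: HT1080 RFP-PRO-GFP cells | Dosing: 20 µM single dose, 1% DMSO | Incubation: Cells overnight before dosing, compound overnight, 37 °C, 5% CO2 | Evaluation: GFP/RFP fluorescence ratio | Control set: DMSO-only wells and HT1080 RFP-L50D-GFP cell wells as references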
# Rce1 inhib – inhibitors of yeast Ras-converting enzyme | Q03530 | 290,000 compounds, 0.27% hits | calls only | yeast membranes, quenched prenylated peptide cleavage fluorescence | AID 2563;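 active = fall in fluorescence gain of 50% or more versus controls, with final raw signal at or below 3038400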;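 note: plate controls were neutral control wells for no effect and wells lacking membranes for full effect; tested at 10 µM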
# CSC inhib – blocks cancer stem cells; cancer stem cell-like cells viability, luminescence; inhibition, % at 7.5 µM; 300,000 compounds, 1.1% hits;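 active = mean at 75% or more and at least half the replicates too; tested in HMLE shEcad cells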;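 note: 0% = median of negative and 100% = median of positive control wells; the first replicate is given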
# Env fusion inh – blocks HIV Env-driven cell-cell fusion; 360,000 compounds, 1.1% hits; HeLa-JRFL Env/CEM21 cell fusion, luciferase; inhibition, % at 12.3 µM;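 active = mean replicate inhibition score of at least 50 and every replicate individually at or above 50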;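 note: 0% = plate neutral controls and 100% = maraviroc near 300 nM; one replicate is shown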
# MT1-MMP act inh RFP – second read-out of MT1-MMP act inh, no call of its own (marks repeat the call); RFP signal change, %; measured here: RFP expression control read;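 0 = vehicle wells; hits needed this value within 50% of zero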
# * hit, by the source's call; i = inactive; nt = not tested or not shown.
structure	eIF4H FP inh	PABP FP inh	UUG fidelity	MT1-MMP act inh	MT1-MMP act inh RFP	Rce1 inhib	CSC inhib	Env fusion inh
COc1cc(N)cc(NC(=O)c2ccncc2)c1	-2.3	-2.5	-10.9	1.9	-5.9	i	-14.9	nt
CN1CCC(OC(=O)C23CCC(C)(C(=O)O2)C3(C)C)CC1 (configuration not stated)	8.9	12.2	-3.2	-3.1	-2.9	i	44.0	-18.3
COc1cccc(CNc2nc3ccccc3n2C(C)C)c1O	1.5	2.7	7.7	-7.0	-0.3	i	nt	14.1
CCCN(CCC)S(=O)(=O)c1nc2nc(C)cc(C)n2n1	-0.4	0.1	-7.4	7.7	4.9	i	3.9	-1.3
Nc1c(C(=O)NCc2ccco2)c2nc3ccccc3nc2n1CCc1ccccc1F	11.8	20.9	3.1	-32.5	-1.4	i	12.8	-6.8
Nc1ccc(-c2nc3c(Cl)cc(N)cc3[nH]2)cc1	-7.3	-3.1	-18.6	10.9	-7.4	i	15.7	nt
OC1=C(O)c2nc3cc(F)ccc3nc21	0.5	1.4	-17.1	-2.5	4.0	i	3.1	-19.9
O=C(NCCc1c[nH]c2ccccc12)C1CCCN(S(=O)(=O)c2ccccc2)C1 (configuration not stated)	-6.4	-7.9	3.2	2.1	-4.4	i	14.3	5.6
O=C(/C=C/c1ccc2c(c1)OCO2)Nc1cc(S(=O)(=O)N2CCOCC2)ccc1N1CCOCC1	-6.3	6.0	nt	7.9	1.0	i	6.0	nt
O=C(Nc1nc(=O)c2ccccc2s1)c1ccc(F)cc1	-2.7	-7.4	-11.5	-2.0	3.6	i	-6.7	nt
COc1ccc(CNC(=O)C(C)OC(=O)Cn2cnc3c2c(=O)n(C)c(=O)n3C)cc1 (configuration not stated)	nt	nt	-2.4	-4.2	-1.2	nt	nt	4.8
CCc1ccccc1N1CN(Cc2cccnc2)CNC1=S	-3.1	3.8	-17.7	4.0	4.2	i	-8.3	-52.7
COCCn1c(=NC(=O)CSCC(=O)N2CCOCC2)sc2cc(C)ccc21	-7.4	-2.6	-16.6	-0.6	3.3	i	-8.2	-4.2
CCCCNc1c(-c2ccc(SC(C)CC)cc2)nc2cnccn12 (configuration not stated)	nt	nt	-13.3	-44.3	-15.0	nt	107.2*	nt
O=C(NCc1ccccc1F)c1ccncc1	-6.8	4.4	-11.4	-1.1	0.9	i	0.2	-9.8
CCN(CC)S(=O)(=O)c1cccc2nsnc12	-4.4	2.9	-2.2	-0.9	3.8	i	-2.3	-52.4
COc1ccc(S(=O)(=O)N2CCCC2CNC(=O)C(=O)NCc2ccco2)cc1 (configuration not stated)	nt	nt	-14.7	-1.0	0.9	i	10.6	-7.2
CCN(CC)CCNC(=O)CS(=O)Cc1nc(-c2ccccc2Cl)oc1C (configuration not stated)	-1.6	-14.7	-18.7	7.5	8.6	i	-14.7	-182.7
COc1ccccc1C(=O)NC(=O)COC(=O)Cn1cnc2c1c(=O)n(C)c(=O)n2C	nt	nt	nt	-4.5	-1.8	i	-4.3	-5.4
COCCCNC(=S)N/N=C/c1ccc(O)cc1	-4.4	1.9	-23.7	1.2	1.8	i	2.1	7.8
O=C(Nc1cc(F)ccc1F)C1CCN(S(=O)(=O)c2cccc3nonc23)CC1	-7.5	9.5	2.0	-0.3	-1.5	nt	-5.8	1.5
COc1ccc(CCNC(=O)CNCCc2ccc(F)cc2)cc1	10.8	9.1	-16.6	-1.2	0.4	i	1.7	-5.8
C#CCNC(=O)C1=C[C@@H](c2csc3ccccc23)C[C@@H](OCc2ccc(CO)cc2)O1	-5.1	-6.4	1.2	-2.4	-8.6	i	-14.7	-8.1
Cn1c(=O)[nH]c(=O)c2c1nc(NCCCn1ccnc1)n2Cc1ccccc1	6.7	5.4	-20.0	-0.6	5.1	i	-3.7	nt
C=CCNC(=O)/C(C#N)=C/c1ccc(C(=O)O)cc1	2.4	5.2	-20.3	4.0	4.8	i	-24.8	4.0

# Exported as labelled records: part of the list above
COc1cc(N)cc(NC(=O)c2ccncc2)c1
  eIF4H FP inh: -2.3
  PABP FP inh: -2.5
  UUG fidelity: -10.9
  MT1-MMP act inh: 1.9
  MT1-MMP act inh RFP: -5.9
  Rce1 inhib: i
  CSC inhib: -14.9
  Env fusion inh: nt
CN1CCC(OC(=O)C23CCC(C)(C(=O)O2)C3(C)C)CC1 (configuration not stated)
  eIF4H FP inh: 8.9
  PABP FP inh: 12.2
  UUG fidelity: -3.2
  MT1-MMP act inh: -3.1
  MT1-MMP act inh RFP: -2.9
  Rce1 inhib: i
  CSC inhib: 44.0
  Env fusion inh: -18.3
COc1cccc(CNc2nc3ccccc3n2C(C)C)c1O
  eIF4H FP inh: 1.5
  PABP FP inh: 2.7
  UUG fidelity: 7.7
  MT1-MMP act inh: -7.0
  MT1-MMP act inh RFP: -0.3
  Rce1 inhib: i
  CSC inhib: nt
  Env fusion inh: 14.1
CCCN(CCC)S(=O)(=O)c1nc2nc(C)cc(C)n2n1
  eIF4H FP inh: -0.4
  PABP FP inh: 0.1
  UUG fidelity: -7.4
  MT1-MMP act inh: 7.7
  MT1-MMP act inh RFP: 4.9
  Rce1 inhib: i
  CSC inhib: 3.9
  Env fusion inh: -1.3

# (next part)
structure	eIF4H FP inh	PABP FP inh	UUG fidelity	MT1-MMP act inh	MT1-MMP act inh RFP	Rce1 inhib	CSC inhib	Env fusion inh
CCCCn1c2ccc(C)cc2c2nnc(SCCN3CCCCC3)nc21	-15.8	-0.8	-7.1	-4.5	-4.2	i	36.4	22.7
COc1cccc(CN2CCN(CC(=O)Nc3ccccc3Cl)CC2)c1	-7.1	-4.0	-1.8	-1.2	-3.0	i	-4.7	nt
COc1ccc(NC(=O)CSc2ncnc3c2cnn3Cc2ccccc2)cc1	-12.0	6.1	-6.7	3.7	-9.2	i	2.5	-47.2
O=C(COC(=O)c1n[nH]c2ccccc12)NCc1ccccc1	-4.6	2.9	-1.8	5.3	2.5	i	-12.4	-17.3
C/C(=N\NC(=O)C1CCCN(S(=O)(=O)c2ccccc2)C1)c1ccncc1 (configuration not stated)	5.1	-15.4	nt	7.3	3.8	i	nt	nt
CC1=CC2=NCC(O)CN2C=C1 (configuration not stated)	-1.7	8.2	-14.3	-3.6	-1.1	i	-5.7	-20.2
CCOC(=O)c1ccc(P(=O)(c2ccccc2)c2ccccc2)cc1	6.1	3.5	6.6	1.1	-3.0	i	-8.3	0.7
CS(=O)(=O)Nc1ccc(N2CCCCC2)c(Cl)c1	2.1	5.8	nt	6.8	-7.8	i	-2.4	nt
COC(=O)c1ccc(C)c(NC(=O)Cn2cnc3ccccc3c2=O)c1	-10.2	2.7	9.7	3.1	2.7	i	-10.7	-79.1
CCOC(=O)N1CCN(S(=O)(=O)c2ccc(C(=O)Nc3sc4c(c3C(N)=O)CC(C)(C)NC4(C)C)cc2)CC1	-12.2	-4.1	nt	-0.6	-0.7	i	4.3	-7.7
COc1ccc(C(=O)Nc2ccc(S(=O)(=O)N3CCc4ccccc43)cc2)cc1	nt	nt	-7.3	1.0	-20.1	i	30.3	62.1*
COc1ccc(CNC(=O)c2ccc(NC(=O)CC3SC(N4CCCC4)=NC3=O)cc2)cc1 (configuration not stated)	-13.1	-5.4	3.2	2.1	1.3	i	-10.6	-5.9
COc1ccccc1CCNC(=O)c1cccc(S(=O)(=O)NCc2ccccc2)c1	nt	nt	nt	0.2	-4.0	i	-4.3	-6.0
O=C(Nc1ccc(Cl)cn1)Nc1ccccc1F	4.0	-7.8	6.5	-2.4	2.3	i	-4.7	-74.2
Cc1cc(OC(C)C(=O)NCC2CCCO2)cc(C)c1Cl (configuration not stated)	-3.2	-1.5	-27.4	1.2	-1.9	i	1.5	0.5
CC1=C(C(=O)N2CCOCC2)CC(CC(=O)NCCc2ccccn2)C(=O)N1Cc1ccc(F)cc1 (configuration not stated)	nt	nt	-7.2	3.3	3.8	nt	nt	-11.6
Oc1ccccc1-c1cc(-c2ccc3c(c2)OCCO3)n[nH]1	4.6	-8.7	-51.8	4.0	-3.5	i	46.8	nt
C=C1CCC[C@]2(C)C[C@H]3OC(=O)C(CNC(C)(CO)CO)[C@H]3CC12 (some centres not stated)	-6.6	15.2	-12.8	-14.9	-10.8	i	9.6	-10.2
CN(CCOc1ccc(Cl)cc1)C(=O)CN1C(=O)NC2(CCCCC2)C1=O	nt	nt	nt	6.9	3.9	i	-11.0	4.5
COc1ccc(C(=O)C(Sc2nnc(C)c(=O)[nH]2)c2ccc(OC)cc2)cc1 (configuration not stated)	0.9	22.7	nt	-3.3	-5.1	i	-5.8	6.7
O=c1c2ccccc2oc2nc(C3CCCCC3)n(Cc3ccco3)c(=O)c12	1.9	-13.3	-6.4	-21.9	-8.5	i	-6.7	-230.2
O=C1CCC(C(=O)NCc2ccc3c(c2)OCO3)N1 (configuration not stated)	-6.5	-6.6	nt	2.5	6.6	i	2.4	-8.7
CCOC(=O)c1cc(-c2ccc(OC)cc2OC)nn1-c1ccc(C(=O)O)cc1	5.3	13.0	nt	-1.1	-0.2	i	-5.1	11.2
CCC(=O)c1ccc(OCC(=O)Nc2ccc(N3CCOCC3)cc2N2CCOCC2)cc1	-9.7	-7.3	5.9	-0.5	-1.3	i	-8.3	1.4
O=C(CCNC(=O)C1CCN(S(=O)(=O)c2ccccc2)CC1)NCc1ccc(Cl)cc1Cl	-6.2	-5.5	-2.2	2.7	-2.9	i	-7.9	9.8
Cc1ccc(C(=O)CSc2nnc(-c3ccccc3N)n2C)cc1C	-11.5	2.7	-8.9	5.7	-1.9	i	-1.9	19.0
CC(=O)CC(C)(C)n1nnc(-c2ccccc2)n1	-10.5	-16.4	0.3	5.7	10.7	i	-6.6	nt
CCc1c(C)nc(N2CCN(c3ccccc3F)CC2)[nH]c1=O	3.4	1.4	-8.2	3.9	-2.8	i	-3.3	4.2
CCOc1ccccc1NC(=O)CCNS(=O)(=O)c1ccc(NC(C)=O)cc1	-4.1	-7.5	-11.2	1.8	7.7	i	-7.9	3.0
CCOC(=O)c1c(C)[nH]c(C(=O)COC(=O)CNC(=O)c2ccccc2Cl)c1C	5.2	6.1	nt	2.4	4.5	i	-5.8	-14.7
O=S(=O)(c1ccc(F)cc1)N1CCN(C(=S)NC2CC2)CC1	nt	nt	-13.9	-2.3	0.8	nt	-18.0	-1.0
O=C(CCSCCC(=O)NN=Cc1ccc(F)cc1)NN=Cc1ccc(F)cc1	nt	nt	-10.8	-1.4	0.4	nt	nt	-4.5
CCc1cccc(CC)c1NC(=O)COC(=O)c1ccc2c(c1)S(=O)(=O)c1ccccc1C2=O	4.6	2.1	nt	-4.2	4.6	i	16.2	-1.6
Cc1cc(C)c(NC(=O)CNC(=O)COC(=O)C2CCN(c3ccc(C(F)(F)F)cn3)CC2)c(C)c1	-8.4	0.0	-3.1	-5.1	-3.3	i	nt	-6.7
Cc1ccc(C)c(NC(=O)c2sc(Cl)nc2C)c1	3.5	1.8	-5.1	-1.9	-0.2	i	-4.7	-9.0
Cc1ccsc1C(=O)N1CCCC(C)(C(=O)NS(=O)(=O)C2CC2)C1 (configuration not stated)	nt	nt	-2.9	-2.4	4.7	nt	nt	5.8
COCCNC(=O)CN(Cc1ccccc1)S(=O)(=O)c1ccc2nc(C)sc2c1	-0.6	-2.7	-7.9	-1.1	-0.9	i	-9.3	14.4
Cc1ccc(S(=O)(=O)N2CCCC(C(=O)Nc3ccc(C(=O)O)cc3)C2)cc1Cl (configuration not stated)	-10.9	-7.1	nt	-2.2	-7.3	i	-4.0	7.2
N/C(Cc1ccc(Cl)c(Cl)c1)=N\OC(=O)c1ccc(Br)o1	-8.3	-7.4	nt	-1.1	-1.8	i	9.4	7.3

# A portion of the library, so the mix of outcomes need not match the whole.
